KCNQ2 inh: KCNQ2 potassium channel inhibitors, primary screen, cell-based, CHO-K1, FluxOR thallium flux, B-score (AID 2156); Potassium voltage-gated channel subfamily KQT member 2 (Rattus norvegicus), O88943; 20 min; active compounds read low; only compounds with negative scores are shown here; some inactives read as strong as hits; B-score at 10 µM; 310,000 compounds, 1.1% hits;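 active means fluorescence ratio B-score at most minus 3 library SDs, with starting brightness B-score within 2 library SDs, cut at about -5.5 in these data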
Target sequence (O88943 whole entry, looked up): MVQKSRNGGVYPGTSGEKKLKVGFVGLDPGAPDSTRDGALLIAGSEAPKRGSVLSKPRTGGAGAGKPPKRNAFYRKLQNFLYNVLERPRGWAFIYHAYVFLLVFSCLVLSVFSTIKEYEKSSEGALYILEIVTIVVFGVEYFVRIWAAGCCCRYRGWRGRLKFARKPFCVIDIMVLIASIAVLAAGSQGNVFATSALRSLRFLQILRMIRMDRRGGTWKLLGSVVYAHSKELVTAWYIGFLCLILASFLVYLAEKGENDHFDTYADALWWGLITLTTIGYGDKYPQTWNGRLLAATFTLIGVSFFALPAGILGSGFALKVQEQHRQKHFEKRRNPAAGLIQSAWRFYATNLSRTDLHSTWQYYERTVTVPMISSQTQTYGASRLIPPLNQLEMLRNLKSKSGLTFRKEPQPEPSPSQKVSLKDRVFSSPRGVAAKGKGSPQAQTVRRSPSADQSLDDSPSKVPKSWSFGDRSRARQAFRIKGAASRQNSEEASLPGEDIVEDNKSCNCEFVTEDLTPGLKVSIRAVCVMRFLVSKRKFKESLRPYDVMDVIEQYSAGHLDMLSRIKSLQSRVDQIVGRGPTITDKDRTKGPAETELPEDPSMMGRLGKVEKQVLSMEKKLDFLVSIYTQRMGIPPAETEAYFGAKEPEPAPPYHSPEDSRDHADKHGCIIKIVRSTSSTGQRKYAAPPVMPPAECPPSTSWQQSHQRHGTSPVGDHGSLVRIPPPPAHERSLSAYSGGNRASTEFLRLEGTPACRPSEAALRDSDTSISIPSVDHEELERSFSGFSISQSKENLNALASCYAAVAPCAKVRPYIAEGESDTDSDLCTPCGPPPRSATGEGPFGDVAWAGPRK
KCNQ2 inh baseline: second read-out of KCNQ2 inh, no call of its own (marks repeat the call); B-score; measured here: initial fluorescence intensity artifact check;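 brightness before thallium and not channel activity; 0 = typical well and far values either way flag optical interference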
Active calls of the source: *; i = inactive.

KCNQ2 inh	KCNQ2 inh baseline	Structure
i	-0.2	Cc1cc(-c2ccc(C(C)C)c(S(=O)(=O)N3CCN(c4ccccc4)CC3)c2)on1
i	1	CNC(=O)N(O)C1N(/N=C/c2cccnc2)C(=S)SC1(C)C (configuration not stated)
i	1.6	CC(=O)c1cc2cc(O)ccc2o1
i	1.6	Cn1nc(C(F)(F)F)c2cc(C(=O)N3CCOCC3)sc21
i	0.95	NC(=O)c1cccn1Cc1ccccc1Cl
i	0.23	O=C(Nc1ccc(C(=O)c2ccccc2)cc1)c1ccccc1
i	0.72	CC1CCCC(C)N1C(=O)COC(=O)c1cc(-c2cccs2)nn1-c1ccccc1 (configuration not stated)
i	0.32	CCOC(=O)c1c(C)[nH]c(C)c1S(=O)(=O)N1CCCCC1
i	0.21	Cc1ccc([N+](=O)[O-])cc1-c1ccc(/C=C(\C#N)c2[nH]nc(N)c2C#N)o1
i	-0.75	O=C1C=C(Nc2ccccc2)c2ccccc2C1=O
i	-1	O=C(CSc1ccc(F)cc1)Nc1ccc(C2SCCS2)cc1
i	-1.5	COc1ccc(NC(=O)Cn2nnc(C(=O)NCCc3ccccc3)c2N)c(OC)c1
i	2	Cn1cc(Br)c(C(=O)N/N=C/c2cc3c(cc2Cl)OCO3)n1
i	-1.2	C(=N\N1CCN(Cc2ccccc2)CC1)/c1ccccc1
i	2.4	NS(=O)(=O)c1ccc(CCNC(=O)COC(=O)CC(c2ccccc2)c2ccccc2)cc1
i	2.1	C=CCCC(=O)N1CCC(n2nccc2NC(=O)CCCc2ccccc2)CC1
i	-0.88	CC(C)NC(=O)c1c(O)c2ccccc2[nH]c1=O
i	1.9	OCCNc1cc(Cl)ncn1
i	-1.8	CC1CCc2sc(C(=O)Nc3nnc(SCc4ccc(F)cc4)s3)cc2C1 (configuration not stated)
i	-1.8	COc1ccc(N2CCN(C(=O)c3ccc(NS(=O)(=O)c4ccc(F)c(F)c4)cc3)CC2)cc1
i	-0.12	COc1ccccc1C(=O)N/N=C(\C)CC(=O)Nc1ccccn1
i	1.8	COC(=O)c1ccccc1NCc1cc(=O)oc2cc(O)c(O)cc12
i	-0.8	O=C(C1CC(c2ccccc2O)=NO1)N1CCc2ccccc2C1 (configuration not stated)
i	-0.22	CCn1cc(CNC(=S)Nc2cccc3ccccc23)cn1
i	1.2	COc1ccccc1CNC(=O)C1Cc2cc(S(=O)(=O)N3CCCCC3)ccc2N1C(C)=O (configuration not stated)
i	-0.52	COc1ccc(NC(C)=O)cc1NC(=O)CN1CCN(CC(=O)Nc2ccccc2Cl)CC1
i	-1.2	Cc1ccc(N(C)C(=O)N2CCN(S(=O)(=O)c3ccc(C)cc3)CC2)cc1
i	-0.59	CCCC(=O)NC(=S)Nc1cccc(Cl)c1N1CCCCC1
i	0.18	CCN(CC)CCCN1C(=O)c2oc3ccccc3c(=O)c2C1c1cc(OC)ccc1OC (configuration not stated)
i	-0.7	Cc1ccc(C(=O)c2cc([N+](=O)[O-])ccc2N2CCCCC2)c(C)c1
i	0.89	CN(C)c1ccc(C(CNS(=O)(=O)c2ccc3ccccc3c2)c2c[nH]c3ccccc23)cc1 (configuration not stated)
i	-0.3	CCOC(=O)Cc1cc(=O)[nH]c(/N=C(\N)Nc2ccc(OC)cc2)n1
i	-0.84	Cc1ccc(NC(=O)CN(C)Cc2c(O)ccc3ccccc23)cc1
i	0.31	Cc1cc(C)nc(N2CCC(C(=O)Nc3cccc(C(F)(F)F)c3)CC2)n1
i	-0.07	CCOC(=O)c1c(NC=O)sc2c1CCC2
i	-0.25	Cc1nn(Cc2ccc(F)cc2)c2sc(C(=O)Nc3nccs3)cc12
i	1.8	COc1cccc(C(C(=O)NC2CCCC2)N(C(=O)c2ccco2)C2CC2)c1OC (configuration not stated)
i	0.24	C/C(=C\C(=O)c1ncc(C(F)(F)F)cc1Cl)N(C)C
i	1.1	CCn1c(=O)n(CC(=O)Nc2cc(OC)ccc2OC)c(=O)c2ccccc21
i	0.62	Clc1ccc(OCCOCCN2CCc3ccccc3C2)c(Cl)c1
i	-0.05	CCOC(=O)C=C1CCN(c2ncc(C(F)(F)F)cc2Cl)CC1
i	0.5	Cc1ccc(S(=O)(=O)N(C)c2ccc(C(=O)NCC3CCCO3)cc2)cc1 (configuration not stated)
i	-0.65	COc1ccc(CC(=O)N(C)CC(=O)Nc2cccc(F)c2)cc1S(=O)(=O)N1CCOCC1
i	2	CC1(C)Cc2nc3sc(C(=O)O)c(N)c3cc2CS1
i	-0.6	COc1cc(C(=O)N/N=C/c2ccc3c(c2)c2ccccc2n3C)ccc1O
i	1.4	CCN(CC)S(=O)(=O)c1ccc2nc(CCl)[nH]c2c1
i	-0.14	COc1ccccc1N=Nc1c(O)[nH]c2ccc(Br)cc12
i	-1.1	CN1C2C=C3C(C#N)=C(N)C(C#N)(C#N)C(c4ccc(Br)cc4)C3C1CC2 (configuration not stated)
i	-0.68	COC(=O)N/N=C/c1ccc(Oc2ccccc2)cc1
i	1.9	CCN(CC)C(=O)Oc1ccc2c(c1)O/C(=C\c1ccco1)C2=O
i	-0.09	Cc1cc(NS(=O)(=O)c2cccc([N+](=O)[O-])c2)no1
i	3.3	COc1ccc(-c2nc(CS(=O)CC(=O)NCc3cccnc3)c(C)o2)cc1 (configuration not stated)
i	0.05	O=C(N/N=C/c1ccc([N+](=O)[O-])o1)C1CC1
i	-0.68	CCN(Cc1ccccc1)C(=O)Cn1cc2c(n1)CCCC2
i	0.08	Cc1ccc(SCCC(=O)NCc2ccco2)cc1
i	0.32	CCS(=O)(=O)Nc1ccc(C2=NN(C(=O)c3ccccc3)C(c3cccs3)C2)cc1 (configuration not stated)
i	0.65	CCC1Oc2ccc(C)cc2N(CC(=O)NCc2ccccc2OC)C1=O (configuration not stated)
i	-0.4	CC(=O)OC[C@H]1O[C@@H](O/N=C/[C@@H](C)[C@H](OCc2ccccc2)C(C)C)[C@H](OC(C)=O)[C@@H](OC(C)=O)[C@@H]1OC(C)=O
i	0.13	COc1cccc(-c2nc(C(N)=O)c3[nH]c(=O)n(-c4cccc(Cl)c4)c3n2)c1OC
i	-2	Cc1ccc(C)c(N2CCN(C(=O)C3CCCN(c4ncnc5c4nc4n5CCCCC4)C3)CC2)c1 (configuration not stated)

(further entries)
KCNQ2 inh	KCNQ2 inh baseline	Structure
i	0.17	Cc1cccc(OCc2nnc(SCC(=O)Nc3ccc(N4CCOCC4)cc3)o2)c1
i	-0.13	CCC(=O)c1ccc(N2CCN(C(=O)c3cc([N+](=O)[O-])ccc3N3CCN(C)CC3)CC2)c(F)c1
i	-0.17	Cc1ccc(C(=O)OCc2nnc(-c3ccc(Br)cc3)o2)cc1
i	-2.5	O=C(NNC(=O)c1cc2ccccc2cc1O)Nc1ccccc1F
i	0.05	O=C(Cc1ccccc1[N+](=O)[O-])N/N=C/c1cccnc1
i	-0.06	Cc1ccc(C)c(/C(O)=C2\C(=O)C(=O)N(CCCn3ccnc3)C2c2ccncc2)c1 (configuration not stated)
i	-0.85	O=C(/C=C/c1cccc(F)c1)Nc1cc(S(=O)(=O)N2CCOCC2)ccc1N1CCCC1
i	2.9	CCCCNC(=O)CC1Nc2ccccc2NC1=O (configuration not stated)
i	-0.24	CCCOc1ccc(S(=O)(=O)NCCN2CCOCC2)c2ccccc12
i	0.05	COC(=O)N/N=C/c1c[nH]c2ccccc12
i	1.5	O=C(NCCN1CCOCC1)c1ccccc1N1C(=O)[C@@H]2Cc3c([nH]c4ccccc34)C(c3ccc(F)cc3)N2C1=O (some centres not stated)
i	2.4	COc1ccc(N2CC(NS(=O)(=O)c3ccc(F)cc3)CC2=O)cc1 (configuration not stated)
i	-0.38	C/C(CC(=O)NC(C)(C)C)=N\NC(=O)COc1ccc(C)cc1Br
i	-1.5	Cc1nc2scc(C)n2c(=O)c1S(=O)(=O)Nc1ccc(N2CCN(S(C)(=O)=O)CC2)cc1
i	-0.17	CCNC(=S)NS(=O)(=O)c1ccc(F)cc1

Retrieved by compound from the list above:
KCNQ2 inh	KCNQ2 inh baseline	Structure
i	-0.24	CCCOc1ccc(S(=O)(=O)NCCN2CCOCC2)c2ccccc12
i	0.05	COC(=O)N/N=C/c1c[nH]c2ccccc12
i	-1.5	Cc1nc2scc(C)n2c(=O)c1S(=O)(=O)Nc1ccc(N2CCN(S(C)(=O)=O)CC2)cc1
i	-0.17	CCNC(=S)NS(=O)(=O)c1ccc(F)cc1

(more compounds)
KCNQ2 inh	KCNQ2 inh baseline	Structure
i	0.56	O=C(O)CCc1ccc(-c2ccccc2)n1-c1cccc(C(=O)O)c1
i	0.17	CN(C(=O)COC(=O)c1nc(Cl)c(Cl)c(Cl)c1Cl)C1CCS(=O)(=O)C1 (configuration not stated)
i	-1.6	Cc1nn(C)c(C)c1C(C)NC(=O)c1ccc(OC2CCN(Cc3ccccn3)CC2)cc1 (configuration not stated)
i	0.77	COc1ccc(NC(=O)c2cc(C(C)C)on2)c(OC)c1
i	-1.6	O=C1CCCN1CCCN1CC(C(=O)N(CCO)Cc2ccccc2)CCC1=O (configuration not stated)
i	1.2	Cc1ccccc1-c1nnc(SCC(=O)Nc2cccc(C)c2C)o1
i	0.99	Cc1ccc(Cn2ccc(NC(=O)c3cc(C(C)C)on3)n2)cc1
i	-0.32	C=CCn1c(=NC(=O)c2cccs2)sc2cc(NC(C)=O)ccc21
-8.9*	0.2*	NC(=O)C1CC(O)CN1c1nc(CN2CCOCC2)nc2scc(-c3ccccc3)c12 (configuration not stated)
i	0.81	O=C1C2CC=CCC2C(=O)N1Nc1ccccc1 (configuration not stated)
i	1.3	Clc1cccc(Nc2nc(-c3ccncc3)cs2)c1
i	-0.59	COc1ccc(-n2nc(C(=O)NCC(=O)NC(C)C)c3ccccc3c2=O)c(OC)c1
i	-0.93	Cc1ccc(C(=O)OCC(=O)Nc2ccccc2N2CCOCC2)cc1
i	3	COc1cc(C(=O)Nc2ccc(OCC(=O)O)cc2)cc(OC)c1OC
i	-0.02	CC(C)CNC(=O)CSc1nnc(-c2ccc(Cl)cc2)n1N
i	3.8	Cc1cc(C)c(S(=O)(=O)c2ccccc2C(=O)O)c(C)c1
i	1.7	COC(=O)C1=C(C)Nc2c(c(=O)n(C)c(=O)n2C)C1c1cccc(O)c1 (configuration not stated)
i	-0.06	COc1ccc(C(=O)CCC(=O)Nc2cccnc2)c(OC)c1
i	1.6	COc1ccc(N2C(=O)NC3CC2(C)Oc2ccccc23)cc1 (configuration not stated)
i	-0.71	Nc1nc(-c2ccccc2)cn1N
i	1.7	CC(Sc1ccccc1)C(=O)N/N=C/c1ccccc1 (configuration not stated)
i	0.04	Cc1cc(NC(=O)COc2ccc(N(C)S(=O)(=O)c3ccccc3)cc2)no1
i	-2.1	O=S(=O)(NCc1ccccc1)c1ccc(S(=O)(=O)N(Cc2cccs2)CC2CCCO2)cc1 (configuration not stated)
i	2.6	Cc1cc(C)c2nc(C(F)(F)F)nc(N3CC(C)OC(C)C3)c2c1 (configuration not stated)
i	2.1	COc1ccc(/C=N/Nc2nc(=O)[nH]nc2C)cc1OC
i	0.47	O=C(Nc1ccccc1N1CCN(c2ccc(F)cc2)CC1)c1ccccc1
i	-3.3	O=c1cc(O)nc(SC23CC4CC(CC(C4)C2)C3)[nH]1
i	-2	CCN(CC)Cc1c[nH]c2c(C(=O)OC)cccc12
i	0.01	Cc1cccc(N2CCN(C(=O)CCS(=O)(=O)c3ccc4c(c3)oc(=O)n4C)CC2)c1C
i	0.69	CCC/C(=N\NC(=O)CNC(=O)/C=C/c1ccco1)c1ccccc1

Profiles from above. Screens in order: KCNQ2 inh | KCNQ2 inh baseline
`COc1ccc(/C=N/Nc2nc(=O)[nH]nc2C)cc1OC` in the list: i | 2.1
`O=C(Nc1ccccc1N1CCN(c2ccc(F)cc2)CC1)c1ccccc1` in the list: i | 0.47

Some of these compounds in order of the KCNQ2 inh baseline value, lowest first.
KCNQ2 inh	KCNQ2 inh baseline	Structure
i	-0.06	COc1ccc(C(=O)CCC(=O)Nc2cccnc2)c(OC)c1
i	0.04	Cc1cc(NC(=O)COc2ccc(N(C)S(=O)(=O)c3ccccc3)cc2)no1
i	0.47	O=C(Nc1ccccc1N1CCN(c2ccc(F)cc2)CC1)c1ccccc1
i	0.69	CCC/C(=N\NC(=O)CNC(=O)/C=C/c1ccco1)c1ccccc1
i	1.7	CC(Sc1ccccc1)C(=O)N/N=C/c1ccccc1 (configuration not stated)
i	2.6	Cc1cc(C)c2nc(C(F)(F)F)nc(N3CC(C)OC(C)C3)c2c1 (configuration not stated)

(next part)
KCNQ2 inh	KCNQ2 inh baseline	Structure
i	2.2	O=[N+]([O-])c1ncn(C23CC4CC(CC(C4)C2)C3)n1
i	-1	COc1ccc(CCNC(=O)c2nnn(-c3cccc(C)c3)c2N)cc1OC
i	0.15	COc1cccc(CN(C)CC(=O)Nc2cccc(C(F)(F)F)c2)c1OC
i	-1.9	Cc1ccc(N(CC(=O)Nc2ccc(S(=O)(=O)N3CCOCC3)cc2)S(C)(=O)=O)cc1C
i	-0.16	CCc1ccc2nc(-c3cccc(C)c3)nc(SCC(=O)NCC3CCCO3)c2c1 (configuration not stated)
i	0.04	Cc1[nH]n(-c2ccc([N+](=O)[O-])cc2)c(=O)c1C=NCCN1CCN(C(=O)c2cccc(F)c2)CC1
i	-0.56	O=C(NCc1cn2ccsc2n1)c1cccc(C(F)(F)F)c1
i	1.6	CCOC(=O)c1ccc(NS(=O)(=O)c2ccc3oc(=O)[nH]c3c2)cc1
i	0.16	C=CCOc1ccc(Br)cc1CNCCO
i	0.79	COc1ccc(Cl)c(Cn2c(NCCCO)nc3c2c(=O)n(C)c(=O)n3C)c1
i	0.41	CCCCC#Cc1ccc(C(=O)NNC(=O)Nc2ccccc2)o1
i	-1.1	Fc1ccc(-c2cc3nc(-c4ccccc4)cc(N4CCOCC4)n3n2)cc1
i	-0.87	Cc1cc(C)cc(NC(=O)CCc2nc3ccccc3[nH]2)c1

High-throughput results deposited in PubChem by Johns Hopkins Ion Channel Center.

This is a subset; count on the stated rates, not on these rows.
